PrP UTR inh = inhibition of PrP 5' UTR reporter expression; cell-based PrP 5' UTR mRNA reporter, plate reader; inhibition, % (concentration not given with the values); 0.35% of 340,000 active; AID 488862;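 active = every replicate at 50% or more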;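 also: 0 = median of the neutral control wells; tested in H4 reporter cells; numbers are from one replicate; inactives centre near -14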
Sa ugtP lethal = growth inhibition of S. aureus ugtP deletion strain; AID 1259309; growth inhibition, % (concentration not given with the values); S. aureus RN4220 ugtP deletion, OD600 growth, 16 h; some inactives read as strong as hits; 0.54% of 330,000 active;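 active = z-score under -3 and OD600 up to 0.15 on both plates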;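 also: plate controls were untreated wells for no effect and antibiotic for full effect; wells of about 80 µL received 100 nL stock; the first replicate is given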
BJeLR viability = kills HRASV12-expressing BJeLR cells | BJeLR (HRASV12) viability, CellTiter-Glo ATP luminescence, 48 h; reference of the scale not given here | inhibition, % (concentration not given with the values) | 0.17% of 300,000 active | AID 1554;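 active = replicate mean above 50%; inconclusive = above 50% but judged a plate artefact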;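 also: 50 nL library stock added to about 25 µL; numbers are from one replicate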
Autofluor counter = compound fluorescence in toxin protease inhibitor counterscreen; compound autofluorescence counterscreen, microsphere flow cytometry; active compounds read high; fluorescence intensity (no concentration beside the values); 3.1% of 360,000 active;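 active = at least 3 SD above the mean of all compounds, about 16000 in these data; inconclusive = too few beads counted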;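 also: 100 nL of 1 mM stock went into each well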
Mtb hypoxia inh = reduces hypoxia-regulated biosensor signal in M. tuberculosis; M. tuberculosis hypoxia-regulated fluorescent reporter, fluorescence; fluorescence inhibition, % (no concentration beside the values); 0.1% of 300,000 active; AID 1159583;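 active = 35 to 45% if threefold the growth effect, above 45% if 1.5-fold the growth effect; inactive = the rest, general growth blockers included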;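 also: wells of about 50 µL received 100 nL stock; 0% = vehicle wells and 100% = reference inhibitor wells; whole bacteria with a GFP reporter of the hypoxia response; strong numbers were not always called active; many hits fall short of the cut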
Sa RN4220 lethal = kills Staphylococcus aureus RN4220; inhibition, % (test concentration not listed); 0.33% of 330,000 active; S. aureus RN4220 growth, OD600, 16 h;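 active = z-score of -3 or lower and OD600 up to 0.18 on both plates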;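 also: plate controls were untreated cells for no effect and reference antibiotic for full effect; stock transfer was 100 nL into about 80 µL; one replicate is shown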
Mtb hypoxia inh growth = recorded beside Mtb hypoxia inh, whose call it bears; growth inhibition, %; measured here: M. tuberculosis growth (absorbance);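 0% = vehicle and 100% = reference antibiotic; read after six days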
* marks the source's active call; other numbers are inactive results. Not a hit list; about 4.1% have a hit in one of these screens.

How did COc1ccc(/C(C)=N/NC(=O)c2ccc(NS(=O)(=O)c3cccs3)cc2)cc1 do in these assays?
PrP UTR inh: 6; BJeLR viability: 4; Autofluor counter: 4970

What do the screens show for `Cc1ccc(-n2c(=O)c3sccc3n(CC(=O)N3CCCC3)c2=O)cc1`?
PrP UTR inh: -20; Sa ugtP lethal: 1; BJeLR viability: 8; Autofluor counter: 9658; Mtb hypoxia inh: 6; Sa RN4220 lethal: 1.1; Mtb hypoxia inh growth: 12

Results for COc1ccc(OC)c(C2NC(=S)NC(C)=C2C(=O)Nc2ccccn2)c1 (stereo unspecified) ?
PrP UTR inh: -22; Sa ugtP lethal: 5; BJeLR viability: 6; Autofluor counter: 2470; Mtb hypoxia inh: -3; Sa RN4220 lethal: 12; Mtb hypoxia inh growth: -6

What do the screens show for `Cc1cccc(CC(=O)N2CCN(C(=O)c3ccco3)CC2)c1`?
PrP UTR inh: -18; Sa ugtP lethal: 3; BJeLR viability: 1; Autofluor counter: 5533; Mtb hypoxia inh: -10; Sa RN4220 lethal: 4.2; Mtb hypoxia inh growth: 2

How did CCOC(=O)CCCC(=O)Nc1ncnc2c1C(c1ccccc1)c1c(ccc3ccccc13)O2 (stereo unspecified) do in these assays?
PrP UTR inh: -16; Sa ugtP lethal: 17; Autofluor counter: 4328; Mtb hypoxia inh: -1; Sa RN4220 lethal: -0.8; Mtb hypoxia inh growth: 2

How did CC(=O)c1ccc2c(c1)OCCOCCOCCO2 do in these assays?
PrP UTR inh: -22; Sa ugtP lethal: 3; BJeLR viability: 5; Autofluor counter: 3921; Mtb hypoxia inh: 5; Sa RN4220 lethal: 2.9; Mtb hypoxia inh growth: 12

What do the screens show for `O=C(Nc1ccccn1)NC(C(F)(F)F)C(F)(F)F`?
PrP UTR inh: -10; Sa ugtP lethal: 2; BJeLR viability: -5; Autofluor counter: 3175; Mtb hypoxia inh: 0; Sa RN4220 lethal: 2.0; Mtb hypoxia inh growth: 5

What do the screens show for `CC(=O)N(C)C1=Nc2ccc(Cl)cc2C(c2ccccc2)=[N+]([O-])C1`?
PrP UTR inh: 25; Sa ugtP lethal: 3; Autofluor counter: 3345; Mtb hypoxia inh: 14; Sa RN4220 lethal: 1.2; Mtb hypoxia inh growth: 9

What do the screens show for `CCC(C)NC(=O)CCSCCC(=O)NC(C)CC` (stereo unspecified)?
PrP UTR inh: -16; Sa ugtP lethal: 2; BJeLR viability: 13; Autofluor counter: 2035; Mtb hypoxia inh: 10; Sa RN4220 lethal: 5.3; Mtb hypoxia inh growth: 7

What do the screens show for `Clc1ccc(CONc2ncnc3nonc23)c(Cl)c1`?
PrP UTR inh: -45; Sa ugtP lethal: -19; Autofluor counter: 4662; Mtb hypoxia inh: 6; Sa RN4220 lethal: -0.5; Mtb hypoxia inh growth: 1

How did CSc1nnc2c(n1)c(C)nn2-c1cccc(C)c1 do in these assays?
PrP UTR inh: -16; Sa ugtP lethal: 1; BJeLR viability: -2; Autofluor counter: 6571; Mtb hypoxia inh: 3; Sa RN4220 lethal: 7.2; Mtb hypoxia inh growth: 13

What do the screens show for `CCN=C1S/C(=C\c2cn(CC)c3ccccc23)C(=O)N1CC`?
PrP UTR inh: -15; Sa ugtP lethal: -11; BJeLR viability: -4; Autofluor counter: 2772; Mtb hypoxia inh: -5; Sa RN4220 lethal: -6.4; Mtb hypoxia inh growth: -1

How did Cc1ccc(Cn2ccc(NC(=O)C3C4CCC(C4)C3C(=O)O)n2)cc1 (stereo unspecified) do in these assays?
PrP UTR inh: -15; Sa ugtP lethal: -5; BJeLR viability: 0; Autofluor counter: 2985; Mtb hypoxia inh: 6; Sa RN4220 lethal: -12; Mtb hypoxia inh growth: 4

Results for COc1ccc(S(=O)(=O)N(C)CC(=O)N2CCCC2)cc1OC ?
PrP UTR inh: -24; Sa ugtP lethal: 15; BJeLR viability: 4; Autofluor counter: 3812; Mtb hypoxia inh: 6; Sa RN4220 lethal: 2.4; Mtb hypoxia inh growth: 8

Results for O=[N+]([O-])c1ccc2c(c1)C=C1CCCCC1(N1CCCC1)O2 (stereo unspecified) ?
PrP UTR inh: -20; Sa ugtP lethal: 2; BJeLR viability: 7; Autofluor counter: 2080; Mtb hypoxia inh: 2; Sa RN4220 lethal: 6.5; Mtb hypoxia inh growth: 1

Results for Cc1ccc(NC2CCCN(C(=O)CSc3ccccn3)C2)cc1C (stereo unspecified) ?
PrP UTR inh: -17; Sa ugtP lethal: 5; BJeLR viability: 2; Autofluor counter: 4162; Mtb hypoxia inh: -6; Sa RN4220 lethal: 0.3; Mtb hypoxia inh growth: -5

What do the screens show for `CC(OC(=O)C(C)N1C(=O)C2C3C=CC(C4CC34)C2C1=O)C(=O)c1ccccc1` (stereo unspecified)?
PrP UTR inh: -19; Sa ugtP lethal: 4; BJeLR viability: 1; Autofluor counter: 2126; Mtb hypoxia inh: -13; Sa RN4220 lethal: 2.2; Mtb hypoxia inh growth: -6

What do the screens show for `CCNC(=S)N(CCc1cccc(C)c1)Cc1cc2cc(OC)c(OC)cc2[nH]c1=O`?
PrP UTR inh: -30; BJeLR viability: 0; Autofluor counter: 2020

What do the screens show for `CCc1nc(Nc2ccc3nccnc3c2)c2oc3ccccc3c2n1`?
PrP UTR inh: 9; Sa ugtP lethal: -20; BJeLR viability: -2; Autofluor counter: 4277; Mtb hypoxia inh: -4; Sa RN4220 lethal: 4.7; Mtb hypoxia inh growth: -7

Results for CC1(C(=O)NC(=S)N(Cc2ccccc2)c2ccccn2)CC1(Cl)Cl (stereo unspecified) ?
PrP UTR inh: -8; Sa ugtP lethal: 7; BJeLR viability: 11; Autofluor counter: 2700; Mtb hypoxia inh: -3; Sa RN4220 lethal: 6.6; Mtb hypoxia inh growth: -3

How did COc1ccc(CN(C)C(=O)Cn2cnc3c(NCc4ccccc4)ncnc32)cc1OC do in these assays?
PrP UTR inh: 0; Sa ugtP lethal: -15; Autofluor counter: 3060; Mtb hypoxia inh: -8; Sa RN4220 lethal: -1.0; Mtb hypoxia inh growth: 4

How did COc1ccc(CCNC(=O)C2CCN(S(=O)(=O)c3cccc4nonc34)CC2)cc1OC do in these assays?
PrP UTR inh: -21; Sa ugtP lethal: 4; BJeLR viability: -1; Autofluor counter: 4819; Sa RN4220 lethal: 7.6

Results for CC1(c2ccc3ccccc3c2)NC(=O)N(CC(=O)NCC(C)(C)N2CCOCC2)C1=O (stereo unspecified) ?
PrP UTR inh: -2; Sa ugtP lethal: 3; BJeLR viability: -6; Autofluor counter: 4771; Mtb hypoxia inh: 7; Sa RN4220 lethal: 2.1; Mtb hypoxia inh growth: 4

How did CCOc1ccc(C(=O)C[n+]2ccc(C(=O)NCc3ccccc3)cc2)cc1 do in these assays?
PrP UTR inh: -10; Sa ugtP lethal: 11; BJeLR viability: 0; Autofluor counter: 4178; Mtb hypoxia inh: 3; Sa RN4220 lethal: 0.8; Mtb hypoxia inh growth: 21

What do the screens show for `CC1=C(n2nnc([N+](=O)[O-])n2)C(c2cccnc2)C(C#N)=C(N)O1` (stereo unspecified)?
PrP UTR inh: 5; Sa ugtP lethal: 37; BJeLR viability: 11; Autofluor counter: 1999; Mtb hypoxia inh: 2; Sa RN4220 lethal: 7.2; Mtb hypoxia inh growth: -2

Results for Cc1ccc(C(O)=C2C(=O)C(=O)N(CC(C)O)C2c2ccc(N(C)C)cc2)cc1 (stereo unspecified) ?
Sa ugtP lethal: -8; Mtb hypoxia inh: 2; Sa RN4220 lethal: 4.9; Mtb hypoxia inh growth: 5

How did COCCN(C(=O)COC(=O)c1cc2ccccc2cc1OC)c1c(N)n(Cc2ccccc2)c(=O)[nH]c1=O do in these assays?
PrP UTR inh: -14; Sa ugtP lethal: 4; BJeLR viability: -2; Autofluor counter: inconclusive; Mtb hypoxia inh: 6; Sa RN4220 lethal: 2.4; Mtb hypoxia inh growth: 2

Results for O=C(Cc1ccccc1)NN=Cc1cc(Br)cc(Br)c1O ?
Sa ugtP lethal: 54; Mtb hypoxia inh: 8; Sa RN4220 lethal: -4.3; Mtb hypoxia inh growth: 2

How did CC(=O)N(c1nnc(-c2cccc(C)c2)s1)C1CCCC1 do in these assays?
PrP UTR inh: -12; Sa ugtP lethal: 2; BJeLR viability: -4; Autofluor counter: 3110; Mtb hypoxia inh: 2; Sa RN4220 lethal: -2.0; Mtb hypoxia inh growth: -7

Results for CC1CCN(c2nc3c(=O)[nH]c(N)nc3n2[C@@H]2O[C@H](CO)[C@@H](O)[C@H]2O)CC1 ?
PrP UTR inh: -6; Sa ugtP lethal: 7; BJeLR viability: 0; Autofluor counter: 3372; Mtb hypoxia inh: 2; Sa RN4220 lethal: 5.0; Mtb hypoxia inh growth: 9

What do the screens show for `Cc1ccc(C(=O)OCC(=O)N2CCC(c3ccccc3)=N2)c(C)c1`?
PrP UTR inh: -1; Sa ugtP lethal: 0; BJeLR viability: 0; Autofluor counter: 5628; Mtb hypoxia inh: -8; Sa RN4220 lethal: 3.6; Mtb hypoxia inh growth: 1

What do the screens show for `Cc1ccc(C)c(NC(=O)CCN2CCCCC2)c1`?
PrP UTR inh: -10; Sa ugtP lethal: 5; BJeLR viability: -13; Autofluor counter: 3815; Mtb hypoxia inh: -9; Sa RN4220 lethal: 4.8; Mtb hypoxia inh growth: 3

What do the screens show for `CC(C)(C)NC(=O)NC(=O)CN1CCN(c2ncc(C(F)(F)F)cc2Cl)CC1`?
PrP UTR inh: -10; Sa ugtP lethal: -9; BJeLR viability: 1; Autofluor counter: 3832; Sa RN4220 lethal: -1.2

How did CCOC(=O)N1CCN=C1SCc1ccc(C(F)(F)F)cc1 do in these assays?
PrP UTR inh: -19; BJeLR viability: -2; Autofluor counter: 4587

How did Cc1ccc(NC(=O)CSc2ncccn2)c([N+](=O)[O-])c1 do in these assays?
PrP UTR inh: -32; Sa ugtP lethal: -3; BJeLR viability: -15; Autofluor counter: 2491; Mtb hypoxia inh: 13; Sa RN4220 lethal: 12; Mtb hypoxia inh growth: 4

How did CCOC(=O)c1nc(C)nc(Sc2n[nH]c(-c3cc(Cl)cc(Cl)c3)n2)c1C do in these assays?
PrP UTR inh: -18; Sa ugtP lethal: -18; BJeLR viability: -1; Autofluor counter: 6350; Mtb hypoxia inh: -1; Sa RN4220 lethal: -2.3; Mtb hypoxia inh growth: -4

What do the screens show for `O=C(NC1CCCCCC1)C1CCN(c2nc3ccccc3o2)CC1`?
PrP UTR inh: -13; Sa ugtP lethal: 2; BJeLR viability: -8; Autofluor counter: 8027; Mtb hypoxia inh: -9; Sa RN4220 lethal: 0.4; Mtb hypoxia inh growth: -5

How did CCOC(=O)CC1C(=O)NCCN1S(=O)(=O)c1ccc(Cl)cc1Cl (stereo unspecified) do in these assays?
PrP UTR inh: -21; Sa ugtP lethal: 2; BJeLR viability: 8; Autofluor counter: 7711; Mtb hypoxia inh: 10; Sa RN4220 lethal: 6.0; Mtb hypoxia inh growth: 10

What do the screens show for `COc1ccc(NC(=S)NCCSc2ccc(C)cc2)c(OC)c1`?
PrP UTR inh: -2; Sa ugtP lethal: 5; BJeLR viability: 11; Autofluor counter: 4412; Sa RN4220 lethal: 0.0

Results for CC(=O)N1CCC(=NNc2nc3ccccc3s2)CC1 ?
PrP UTR inh: -26; Sa ugtP lethal: -10; BJeLR viability: -4; Autofluor counter: 2059; Mtb hypoxia inh: 12; Sa RN4220 lethal: 0.8; Mtb hypoxia inh growth: 13

An excerpt from above in order of count of non-hydrogen atoms, low to high.
Results for CC(=O)N1CCC(=NNc2nc3ccccc3s2)CC1 ?
PrP UTR inh: -26; Sa ugtP lethal: -10; BJeLR viability: -4; Autofluor counter: 2059; Mtb hypoxia inh: 12; Sa RN4220 lethal: 0.8; Mtb hypoxia inh growth: 13

How did Cc1ccc(NC(=O)CSc2ncccn2)c([N+](=O)[O-])c1 do in these assays?
PrP UTR inh: -32; Sa ugtP lethal: -3; BJeLR viability: -15; Autofluor counter: 2491; Mtb hypoxia inh: 13; Sa RN4220 lethal: 12; Mtb hypoxia inh growth: 4

How did CCOC(=O)N1CCN=C1SCc1ccc(C(F)(F)F)cc1 do in these assays?
PrP UTR inh: -19; BJeLR viability: -2; Autofluor counter: 4587

What do the screens show for `CC(C)(C)NC(=O)NC(=O)CN1CCN(c2ncc(C(F)(F)F)cc2Cl)CC1`?
PrP UTR inh: -10; Sa ugtP lethal: -9; BJeLR viability: 1; Autofluor counter: 3832; Sa RN4220 lethal: -1.2
